UCH37 inh: blocks the human deubiquitinase UCH37; AID 588478; inhibition, % (no concentration beside the values); hit rate 0.33% among 330,000; purified proteasome/UCH37, Ub-AMC cleavage fluorescence; Q9Y5K5;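 active = mean of two replicates above 20%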;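 note: 0% = compound-free wells with enzyme and 100% = wells lacking proteasome; stock transfer was 100 nL into about 20 µL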
Target sequence (Q9Y5K5 whole entry, looked up): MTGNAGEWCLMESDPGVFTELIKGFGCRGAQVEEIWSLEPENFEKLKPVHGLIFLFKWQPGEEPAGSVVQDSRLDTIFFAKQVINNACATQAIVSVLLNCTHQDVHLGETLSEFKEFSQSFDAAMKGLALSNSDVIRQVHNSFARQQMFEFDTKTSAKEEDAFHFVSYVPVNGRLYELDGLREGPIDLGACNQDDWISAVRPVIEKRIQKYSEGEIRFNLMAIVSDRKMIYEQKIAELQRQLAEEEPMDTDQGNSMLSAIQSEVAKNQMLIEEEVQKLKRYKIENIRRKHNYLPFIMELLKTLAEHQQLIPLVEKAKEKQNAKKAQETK
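System: Proteasome-associated human UCH37 deubiquitinase; Input: 0.15 nM proteasome in added enzyme buffer; Also added: Ub-AMC substrate from 1 µM stock; Incubation: 30 min compound-proteasome preincubation then 25 min substrate reaction, room temperature; Detection: fluorescence, ex 355 nm, em 460 nm; Read-out: % inhibition of Ub-AMC cleavage fluorescence; Benchmarks: no-proteasome and no-compound wells.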
Calb FLC: C. albicans growth modulation with fluconazole. C. albicans CaCi-2 (fluconazole-resistant clinical isolate) + fluconazole, Alamar Blue growth, 48 h. growth inhibition, % (no concentration beside the values). hit rate 0.57% among 300,000;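 active = most replicates above 75%; inconclusive = exactly half above 75%; inactive = most below 75%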;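 note: all wells also contain fluconazole at 8 µg/ml as a sub-toxic cotreatment; 0% = median of DMSO wells and 100% = median of geldanamycin control wells; wells of about 8 µL received 7.5 nL stock; the first replicate is given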
B2AR ag: human beta-2 adrenergic receptor agonism by FAP; P07550; Am2.2-beta2AR cells, FAP receptor internalization, flow cytometry; reference of the scale not given here; response, % (no concentration beside the values); hit rate 0.43% among 340,000; AID 504454;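 active = response above a set limit, near 3 SD of response in nonfluorescent compounds, cut at about 42% in these data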;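 note: stock transfer was 100 nL into about 11 µL; a reference agonist was the positive control; negative values mostly stem from fluorescent compounds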
Target sequence (P07550 whole entry, looked up): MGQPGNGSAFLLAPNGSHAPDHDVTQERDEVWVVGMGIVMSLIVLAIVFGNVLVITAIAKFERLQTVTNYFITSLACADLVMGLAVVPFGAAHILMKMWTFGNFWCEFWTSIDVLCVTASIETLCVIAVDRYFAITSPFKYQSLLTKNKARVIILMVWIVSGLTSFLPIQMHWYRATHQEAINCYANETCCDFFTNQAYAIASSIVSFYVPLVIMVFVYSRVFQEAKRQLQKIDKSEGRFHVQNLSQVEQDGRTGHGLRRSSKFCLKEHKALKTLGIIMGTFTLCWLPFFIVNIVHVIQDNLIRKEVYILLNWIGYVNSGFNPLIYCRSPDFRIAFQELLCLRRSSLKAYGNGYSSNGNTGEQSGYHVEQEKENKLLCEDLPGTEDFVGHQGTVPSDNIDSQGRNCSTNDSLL
RanGTP-Imp inh: disruptors of Ran-importin-beta complex formation – biochemical, FRET, CFP-Ran, YFP-importin-beta, homogeneous, primary screen; cell-free CFP-Ran/YFP-importin-beta FRET ratio; inhibition, % (test concentration not listed); hit rate 1.1% among 300,000; AID 2216;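 active = most replicates above 15%; inconclusive = exactly half above 15%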;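 note: 0% = DMSO wells and 100% = Ran loaded with GDP instead of GTP; wells of about 40 µL received 100 nL stock; the first replicate is given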
LANA-H2A inh: blocks KSHV LANA binding to histone H2A/H2B; Q9QR71; cell-free LANA-H2A/H2B peptide, fluorescence polarization; inhibition, % (test concentration not listed); hit rate 0.6% among 320,000; in the data active = inhibition mostly above about 10%, no sharp cut-off; inactive = mostly below about 6.7%;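 note: stock transfer was 7.5 nL into about 10 µL; 0% = median of vehicle wells and 100% = median of positive control wells; one replicate is shown; the record names a cut of 25% in any replicate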
Bfl-1 A1 inh: inhibitors of the anti-apoptotic protein A1, read as caspase activation; AID 2462; caspase activation, % (concentration not given with the values); hit rate 0.066% among 330,000; MEF A1-2A-BIM cells, Caspase-Glo 3/7 luminescence, 3 h; percent of clofoctol response, vehicle zero;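 active = over half of replicate activation scores above 10%, or exactly half above 10 with the replicate mean above 10; inconclusive = replicate mean below 10 yet half the replicates above 10; inactive = over half of replicates below 10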;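 note: wells of about 30 µL received 50 nL stock; many hits fall short of the cut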
T cruzi inh: blocks replication of Trypanosoma cruzi | T. cruzi beta-gal in NIH3T3, luminescence, 90 h | inhibition, % (test concentration not listed) | hit rate 1.4% among 300,000;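 active = mean inhibition across valid replicates above about 55%, limit read from the data; inconclusive = mean below that limit but half or more replicates reach it; inactive = mean below it, under half of replicates reach it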;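 note: signal also drops with host cell toxicity which is not excluded here; 0% = plate median of DMSO wells and 100% = zero luminescence signal; higher percent means less beta-gal luminescence so fewer parasites; stock transfer was 50 nL into about 50 µL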
Beta apoptosis: blocks beta cell apoptosis; INS-1E cytokine-induced death, ATP luminescence, 48 h; percent of positive-control rescue, neutral wells zero; protection from apoptosis, % (concentration not given with the values); hit rate 0.8% among 300,000; AID 435005;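 active = all replicates at 75% or more, or half of them and the mean; inconclusive = half reach 75% but not the mean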;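 note: 0% = cytokine-treated negative control wells and 100% = positive control rescue; higher means more ATP so stronger rescue from cytokine killing; wells of about 40 µL received 100 nL stock; the first replicate is given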
* = called active by the depositor; u = inconclusive; x = not tested or not shown.

cpd	Compound	UCH37 inh	Calb FLC	B2AR ag	RanGTP-Imp inh
1	C[C@@H](NC(=O)[C@@H]1Cc2ccccc2CN1C(=O)OC(C)(C)C)C(=O)NC1CCCCC1	4.7	-25	-4	-2.4
2	C/C(=N\Nc1ccc(Cl)c(C(=O)O)c1)c1ccc(Br)s1	x	3	13	0.1
3	CC(=O)Nc1ccc(NC(=O)CSc2ncc(C(=O)Nc3ccc(F)cc3)c(=O)n2C)cc1	-3.9	-2	1	-1.0
4	COCCN(C(=O)CSc1ncccn1)c1c(N)n(Cc2ccccc2)c(=O)[nH]c1=O	2.6	-1	-5	3.0
5	COc1ccc(C(=O)n2cnc(N)n2)cc1	1.6	-1	-6	-2.5
6	CCOC(=O)c1c(NC(=O)N/N=C/c2ccc(O)c(OC)c2)sc(C(C)=O)c1C	x	-2	x	-4.8
7	CC(NC(=O)c1ccc(S(C)(=O)=O)cc1)c1cccc2ccccc12 (stereo not given)	3.4	1	4	-1.6
8	O=C(COC(=O)c1ccc(S(=O)(=O)Nc2ccccc2)cc1)NCCC1=CCCCC1	1.6	-8	9	-1.4
9	Cc1ccc(NC(=O)C2(S(=O)(=O)c3ccc(C)cc3)CC2)cc1	-1.6	2	-6	5.5
10	CCOc1ccc(/C=C/C(=O)c2ccc(-c3ccccc3)cc2)cc1	1.4	-5	5	u
11	N#CC(C(=O)O)=C1CCCC1	-1.6	-4	-2	-3.6
12	Cc1c(NC(=O)/C=C/c2cccs2)c(=O)n(-c2ccccc2)n1C	8.2	-6	-4	-4.6
13	CC(=O)N1N=C(c2ccccc2)OC1(C)CC(=O)Nc1ccccc1 (stereo not given)	0.8	21	3	6.5
14	COc1ccc(S(=O)(=O)Nc2ccc3ccccc3c2)cc1C	4.4	u	-8	1.5
15	Cc1ccnc(N2CCC(C(=O)Nc3ccc4c(c3)OCO4)CC2)n1	-1.3	-20	-7	0.0

cpd	LANA-H2A inh	Bfl-1 A1 inh	T cruzi inh	Beta apoptosis
1	0.3	-1.5	1	0
2	5.5	-0.8	4	-2
3	0.7	-7.5	-22	5
4	0.1	0.1	-3	-3
5	0.3	0.9	-9	0
6	0.0	-0.8	-4	1
7	-4.2	-0.2	4	1
8	-3.8	-1.3	1	-13
9	3.6	-1.5	-3	-1
10	0.1	0.0	13	x
11	0.2	0.0	3	1
12	-1.6	0.4	-19	-3
13	-2.4	1.0	-10	-14
14	0.8	0.4	-6	1
15	-5.6	0.1	-2	x

Later entries.
cpd	Compound	UCH37 inh	Calb FLC	B2AR ag	RanGTP-Imp inh
16	c1ccc(CCn2nnnc2C(c2cccs2)N2CCN(Cc3ccc4c(c3)OCO4)CC2)cc1 (stereo not given)	0.9	-5	8	-2.3
17	COc1ccccc1-c1nnc(SCC(=O)N2CCOCC2)n1-c1ccccc1	-1.6	4	-4	-2.2
18	N#Cc1ccc2ccn(CC(=O)NC3CCCCC3)c2c1	-12	-11	2	-2.7
19	Cc1nc2ccccn2c1C(=O)CSc1ccc(Cl)cc1Cl	2.7	9	-11	1.0
20	COc1cc(/C=N/NC(=O)c2cnccn2)ccc1O	x	-7	9	2.1
21	CC(=O)N/C(=C\c1ccc(F)cc1)C(=O)NC(C(=O)O)C(C)C (stereo not given)	-1.3	7	-1	-4.8
22	Cc1ccc(CSCC(=O)NCCCN2CCOCC2)cc1	1.2	-13	2	-1.7
23	COc1ccc(CN(C)Cc2c(O)ccc3cc(Br)ccc23)cc1OC	-0.8	23	43*	3.4
24	COC1Cc2ccccc2N(C(N)=O)c2ccccc21 (stereo not given)	7.3	0	-4	-2.8
25	CCNC(=O)n1cc(-n2cncn2)c(-c2ccccc2)n1	1.4	12	3	-0.6
26	CC(c1cccs1)N(Cc1ccco1)C(=O)Nc1ccc(Cl)c(Cl)c1 (stereo not given)	1.0	56	1	5.3
27	C(=C\c1ccccc1)/C=N/Nc1nc2ccccc2[nH]1	x	-15	13	-6.6
28	CC(=O)N1N=C(N)SC1c1cccc([N+](=O)[O-])c1 (stereo not given)	3.7	0	-1	-7.1
29	Cc1ccc(C(=O)NCC(=O)O)s1	-1.3	3	-4	-0.8
30	CCC(=O)Nc1cccc(NC(=S)NC(=O)c2ccc(Cl)cc2)c1	1.9	14	-11	3.5

cpd	LANA-H2A inh	Bfl-1 A1 inh	T cruzi inh	Beta apoptosis
16	-5.0	-1.0	26	2
17	0.3	0.5	2	-5
18	3.1	x	-17	-1
19	-2.2	-0.2	3	0
20	-5.8	0.3	-7	-4
21	-8.3	2.3	-2	-1
22	8.6	0.9	6	-7
23	-0.7	0.1	3	-1
24	-2.8	0.7	-1	-1
25	2.6	0.1	5	3
26	-7.7	1.4	47	-1
27	-0.8	-6.5	49	58
28	x	-0.7	-3	0
29	6.1	-0.2	-18	-4
30	0.2	-0.2	-5	-2

Looked up by compound from the entries so far:
cpd	Compound	UCH37 inh	Calb FLC	B2AR ag	RanGTP-Imp inh
28	CC(=O)N1N=C(N)SC1c1cccc([N+](=O)[O-])c1 (stereo not given)	3.7	0	-1	-7.1
21	CC(=O)N/C(=C\c1ccc(F)cc1)C(=O)NC(C(=O)O)C(C)C (stereo not given)	-1.3	7	-1	-4.8
17	COc1ccccc1-c1nnc(SCC(=O)N2CCOCC2)n1-c1ccccc1	-1.6	4	-4	-2.2
24	COC1Cc2ccccc2N(C(N)=O)c2ccccc21 (stereo not given)	7.3	0	-4	-2.8
19	Cc1nc2ccccn2c1C(=O)CSc1ccc(Cl)cc1Cl	2.7	9	-11	1.0
22	Cc1ccc(CSCC(=O)NCCCN2CCOCC2)cc1	1.2	-13	2	-1.7

cpd	LANA-H2A inh	Bfl-1 A1 inh	T cruzi inh	Beta apoptosis
28	x	-0.7	-3	0
21	-8.3	2.3	-2	-1
17	0.3	0.5	2	-5
24	-2.8	0.7	-1	-1
19	-2.2	-0.2	3	0
22	8.6	0.9	6	-7

Remaining list, next part:
cpd	Compound	UCH37 inh	Calb FLC	B2AR ag	RanGTP-Imp inh
31	NC(=O)C1CCN(C(=O)C2CCC(=O)N(Cc3ccc(Cl)cc3)C2)CC1 (stereo not given)	3.4	-2	-7	-0.2
32	Cc1cccc(C(=O)NC(=S)Nc2ccc(N3CCOCC3)cc2)c1	1.6	-3	4	-1.0
33	COc1ccc(NC(=O)c2cnc3sccn3c2=O)cc1	3.5	1	8	-2.3
34	O=C(Nc1cc(S(=O)(=O)N2CCOCC2)ccc1N1CCOCC1)c1ccc([N+](=O)[O-])s1	11	x	4	x
35	Cc1cc(C(=O)NN)c2cc(Br)ccc2n1	3.3	0	1	3.7
36	Clc1ccc(Cn2ncc3c(NCc4ccccc4)ncnc32)c(Cl)c1	0.6	-11	x	0.4
37	CC(C)[C@H](NC(=O)[C@@H]1Cc2ccccc2CN1C(=O)OC(C)(C)C)C(=O)NC1CCCC1	6.7	4	-6	0.4
38	COCCOC(=O)c1c(NC(=O)CNc2ccc(C)c(F)c2)sc(C(N)=O)c1C	4.6	-6	-18	-1.4
39	O=C(O)CN1C(=O)N/C(=C\c2cccn2-c2ccc(P(=O)(O)O)cc2)C1=O	3.8	x	-6	x
40	COc1ccc(/C(C)=N/OCC(=O)N=Nc2c(O)[nH]c3ccccc23)cc1	x	-6	-9	0.6
41	COc1ccc(NC(=O)C2=CC(c3ccco3)=NS(=O)(=O)N2C)cc1	13	-10	0	u
42	Cc1nnc(N2CCCC(C(=O)NCc3ccc(OC(C)C)cc3)C2)c2nn(-c3ccccc3)c(C)c12 (stereo not given)	-93	-51	2	-1.6
43	COc1ccc(CNC(=O)Cc2ccc(OC)c(S(=O)(=O)N3CCOCC3)c2)cc1	5.9	-1	-1	2.1
44	CN(C)S(=O)(=O)c1ccc(/C(O)=C2/C(=O)C(=O)N(Cc3cccnc3)C2c2cccs2)cc1 (stereo not given)	10	-1	-4	5.3
45	CCOc1ccc2[nH]c(=S)[nH]c2c1	3.6	-10	-2	5.3

cpd	LANA-H2A inh	Bfl-1 A1 inh	T cruzi inh	Beta apoptosis
31	-1.1	1.3	-11	-7
32	-2.0	-0.3	1	-3
33	-2.5	-3.3	6	4
34	2.9	-0.4	x	1
35	-6.4	-0.5	-21	-1
36	-4.0	0.5	8	-11
37	-6.1	3.2	16	-3
38	1.0	-0.3	-1	3
39	0.6	0.3	x	-5
40	0.7	-3.7	-11	5
41	x	x	-4	x
42	0.7	-1.8	26	18
43	4.9	-0.7	5	-1
44	-2.8	1.2	-17	-6
45	x	0.3	-1	0

The listing continues.
cpd	Compound	UCH37 inh	Calb FLC	B2AR ag	RanGTP-Imp inh
46	Cc1cccc(C)c1NC(=O)CN(C)C(=O)c1ccccc1OCc1ccc(F)cc1	-1.4	2	1	0.2
47	O=C(OCc1cccnc1)C1=Cc2ccccc2OC1	-9.4	13	-4	-1.3
48	C/C(=N/NC(=O)c1ccoc1C)c1ccc(NC(=O)C2CCCC2)cc1	x	8	7	2.3
49	CCCC(=O)NNC(=O)CC(=O)Nc1ccccc1C(=O)O	2.7	4	-2	-4.1
50	Cc1cccc(C)c1OC1(c2ccccc2)OC(=O)c2ccccc21 (stereo not given)	6.2	22	5	-0.9
51	O=C(O)c1n[nH]c2c1CCCC2	3.1	3	2	0.8
52	COc1cc(/C=C/C(=O)N2CCN(C(=O)/C=C/c3cc(OC)c(OC)c(OC)c3)CC2)cc(OC)c1OC	-5.6	17	-2	0.7
53	O=C(O)CN=C(NS(=O)(=O)c1ccc(Cl)cc1)c1ccccc1	1.7	0	-9	-4.5
54	CC(C)CCN1C(=O)c2ccc(C(=O)NCc3ccco3)cc2C1=O	-2.9	-5	5	0.8
55	COCCOC(=O)C1=C(C)NC(=O)NC1/C=C/c1ccccc1 (stereo not given)	0.9	-12	1	1.8
56	CC(CNC(=O)C(C)C)NC(=O)C(C)C (stereo not given)	0.1	1	-4	-2.7

cpd	LANA-H2A inh	Bfl-1 A1 inh	T cruzi inh	Beta apoptosis
46	1.0	0.6	-10	x
47	-2.9	-0.3	-10	-1
48	0.4	-0.5	15	3
49	-2.1	0.3	-13	-1
50	-0.9	0.0	10	4
51	-3.7	0.5	-12	5
52	-1.1	0.6	0	2
53	-2.3	0.3	-2	-6
54	-7.1	-0.1	-14	2
55	4.9	0.4	-9	-5
56	-0.4	-0.2	-9	-6

From PubChem BioAssay
